Compound activity as filed in PubChem.
Vaccinia pol inh – vaccinia E9 polymerase processive synthesis inhibition; in vitro processive DNA synthesis, absorbance read-out; stronger effect = lower value; some inactives read as strong as hits; normalized absorbance, % (no concentration beside the values); 46,000 tested, 0.94% active;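 active = replicate mean up to 90% and picked by the depositor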;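 also: 100% = median of the test wells of a plate; 100 nL library stock went into each well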
The depositor's hits bear a star.

SMILES	Vaccinia pol inh
COC(=O)c1ccc(COc2ccc3ccccc3c2)o1	99.9
CC(C)n1c(CCCO)nc2ccccc21	97.3
Cn1cc(SCC(=O)N2CCc3ccccc32)c2ccccc21	101.2
Cc1cc(C)cc(NC(=O)CN2C(=O)CCc3ccccc32)c1	100.5
O=C1C2ON(c3ccc(Cl)cc3)C(c3ccc(F)cc3)C2C(=O)N1Cc1ccccc1 (stereo unspecified)	100.2
Cn1cc(SC(=N)N)c2ccccc21	136.4
CCOC(=O)c1cnn(-c2ccccc2)c1N(C(=O)c1ccccc1F)C(=O)c1ccccc1F	99.7
Clc1ncccc1N=Cc1cccc(Br)c1	105.9
CCOC(=O)c1cn(CC)c2ccc(S(=O)(=O)N3CCc4ccccc4C3)cc2c1=O	100.2
COC(=O)c1cc(NC(=O)c2cccc3c2C(=O)N(Cc2cccnc2)C3)cc(C(=O)OC)c1	95.9
CCOc1ccc(N2CSC(=S)N(c3ccc(OCC)cc3)C2)cc1	102.9
CC(CC(=O)Nc1cccc(C(F)(F)F)c1)N1CCCC1 (stereo unspecified)	94.3

Overlap with the part before: three entries; new compounds follow.
SMILES	Vaccinia pol inh
COC(=O)c1cc(NC(=O)c2cccc3c2C(=O)N(Cc2cccnc2)C3)cc(C(=O)OC)c1	95.9
CCOc1ccc(N2CSC(=S)N(c3ccc(OCC)cc3)C2)cc1	102.9
CC(CC(=O)Nc1cccc(C(F)(F)F)c1)N1CCCC1 (stereo unspecified)	94.3
Fc1ccc(-c2cc(C(F)(F)F)nc(-n3cccn3)n2)cc1	95.2
COc1ccc2cc(C3SC(C)C(=O)N3C3CCCO3)c(Cl)nc2c1 (stereo unspecified)	99.9
CCC(Sc1nc2ncccc2c(=O)n1Cc1ccccc1)C(=O)NCc1ccc(C)cc1 (stereo unspecified)	100.8
COc1ccc(-c2nc(=S)n(CN3CCOCC3)[nH]2)cc1	98.7
Cc1ccc(N2C(=O)C3Sc4[nH]c(=O)sc4C(c4ccccc4)C3C2=O)cc1 (stereo unspecified)	100.2
CCOc1ccccc1N(C)S(=O)(=O)c1ccc2[nH]c(=O)ccc2c1	102.4
COc1ccc(-c2nc(C)c(CCNC(=O)C(C)(C)C)s2)cc1	101.0
Nc1ccccc1N1CCCCC1	98.0
O=C(c1cc2cc(Br)ccc2oc1=O)N1CCCc2ccccc21	99.9
O=C(CC1CCCC1)OCC(=O)c1ccc(Cl)cc1	91.2
Cc1ccc(C)c(NCCOc2ccccc2)c1	100.5
O=C(O)CSc1nnc(Cn2c(=O)sc3ccccc32)n1-c1cccc(C(F)(F)F)c1	104.4
CN(C)c1ccc(N/C(N)=N/c2nc(C(F)(F)F)cc(C(F)(F)F)n2)cc1	100.3
COc1ccc(-c2cn3c(C)c(C(=O)Nc4ccccc4)sc3n2)cc1	89.6
CCn1c(O)c(C2=c3ccccc3=NC2=O)sc1=S	85.9
Cc1nn(-c2ccccc2)c(C)c1Cc1ccc(O)cc1	100.2
NNC(=O)C12CCCC(CCC1)C2	108.3
CCc1nnc(NC(=O)C(C)N2C(=O)C3C4C=CC(C4)C3C2=O)s1 (stereo unspecified)	100.3
Brc1ccc2noc(-c3ccccc3)c2c1	100.3
CN(C)CC#Cc1ccc(-c2ccn(S(=O)(=O)c3ccc(Cl)cc3)n2)s1	104.2
CCC(N)C12CC3CC(CC(C3)C1)C2 (stereo unspecified)	95.7
COc1ccc(CNC(=O)c2cc3c(s2)CN(Cc2ccccc2)C3)cc1	104.1
O=C(O)c1ccc(Nc2nc(-c3ccc(Cl)c(Cl)c3)cs2)cc1	102.4
CCc1cc2c(=O)c(-c3nc4ccccc4s3)coc2cc1OC(C)=O	99.4
O=C(CNc1cc(C(F)(F)F)cc(C(F)(F)F)c1)c1cc2cc(Cl)ccc2o1	93.7
Cc1cccc(NC(=O)CCS(=O)(=O)c2ccccc2)c1	100.4
CC(CC(=O)Nc1ccc(F)cc1)N1CCCC1 (stereo unspecified)	112.1
CC(C)(C)C(=O)Nc1nc(-c2ccc(Cl)s2)cs1	88.7
COc1cc2c(cc1OC)C(C)N(CCC(N)=O)CC2 (stereo unspecified)	99.3
O=C(Nc1nc(-c2cc3ccccc3oc2=O)cs1)c1c(F)cccc1F	99.9
Cc1cc2c(=O)oc(-c3cccc4ccccc34)nc2s1	103.4
CC1=C(C(=O)OC2CCCCCCC2)C(c2ccccc2C(F)(F)F)CC(=O)N1 (stereo unspecified)	103.3
CCOc1ccc(/C=C/C(=O)CCC(=O)O)cc1	133.2
CC1Cc2cc(/C=C3\N=C(c4ccccc4F)OC3=O)ccc2O1 (stereo unspecified)	100.0
CC(SC1=NCCN1S(C)(=O)=O)c1ccccc1 (stereo unspecified)	96.6
Cc1oc2c(F)c(F)c(F)c(F)c2c1-c1noc(C(C)(C)C)n1	92.0
CC1=C(C(=O)OC2CCCCCCC2)C(c2ccc(Cl)c(Cl)c2)NC(=O)N1 (stereo unspecified)	105.5
O=C(NC1CCS(=O)(=O)C1)c1cc(-c2ccccc2)nc2ccccc12 (stereo unspecified)	105.9
CSc1nc(-c2ccccc2)nc2c1Cc1c(CO)cnc(C)c1O2	101.0
CC(C)c1ccc(NC(=O)CSC(=O)c2ccccc2)cc1	101.2
Cc1c(C)c(C)c(C(=O)/C=N/N)c(C)c1C	107.5
Nc1ncc(Br)cc1S(=O)(=O)NCCC(=O)Nc1ccc(Cl)cc1	102.3
Clc1ccc2nc(-c3cccs3)cn2c1	92.0
O=C(Nc1ccc(OCc2ccccc2)cc1)OCC1CN(Cc2ccccc2)CCO1 (stereo unspecified)	99.1
COc1ccc2cc(S(=O)(=O)N3CCN(C)CC3)ccc2c1	99.8
COc1cccc(C(=O)Nc2ccc(-n3nncc3C(C)(C)C)cc2)c1	100.8
Cc1ccccc1NC(=O)Nc1ccccc1N1CCCCC1	106.6
Cc1ccc(-c2ccc(=O)n(CCC(=O)NCCN3CCN(c4cccc(Cl)c4)CC3)n2)cc1	95.8
N=C1S/C(=C\c2ccccc2)C(=O)N1c1ccc(F)cc1	100.1
CC(=O)N[C@H]1[C@H](Oc2ccc(Cl)cc2Cl)O[C@H](CO)[C@@H](O)[C@@H]1O	99.9
COc1cc2c(cc1OC)C1=C(C#N)CN(CC(=O)O)CN1CC2	99.8
COc1cccc(C(=O)NC(C)C2CC3CCC2C3)c1OC (stereo unspecified)	100.8
OC(COc1ccc(Cl)cc1)CN1CCN(c2ccccc2)CC1 (stereo unspecified)	98.3
CC1(C)N=C(c2ccccc2)C(=S)N1	103.1
O=C(COC(=O)C1CCN(S(=O)(=O)c2cccs2)CC1)c1ccccc1	95.0
Cc1ccc(C(=O)CC(C(=O)c2ccc(C(F)(F)F)cc2)c2cccs2)cc1 (stereo unspecified)	101.6
O=C(NN1C(=O)C2C3C=CC(C3)C2C1=O)c1ccncc1 (stereo unspecified)	100.4
COc1ccccc1NC(=O)c1cccc(S(=O)(=O)N2CCCC2)c1	99.8
Cc1ccc(O)c(-c2cc(-c3ncc(Cl)n3C)[nH]n2)c1	103.6
CC(=O)Nc1ccc(O)c(-c2nc3ccccc3s2)c1	96.7

Among those listed so far, these have a CF3 group.
SMILES	Vaccinia pol inh
CC(CC(=O)Nc1cccc(C(F)(F)F)c1)N1CCCC1 (stereo unspecified)	94.3
Fc1ccc(-c2cc(C(F)(F)F)nc(-n3cccn3)n2)cc1	95.2
O=C(O)CSc1nnc(Cn2c(=O)sc3ccccc32)n1-c1cccc(C(F)(F)F)c1	104.4
CN(C)c1ccc(N/C(N)=N/c2nc(C(F)(F)F)cc(C(F)(F)F)n2)cc1	100.3
O=C(CNc1cc(C(F)(F)F)cc(C(F)(F)F)c1)c1cc2cc(Cl)ccc2o1	93.7
CC1=C(C(=O)OC2CCCCCCC2)C(c2ccccc2C(F)(F)F)CC(=O)N1 (stereo unspecified)	103.3
Cc1ccc(C(=O)CC(C(=O)c2ccc(C(F)(F)F)cc2)c2cccs2)cc1 (stereo unspecified)	101.6

Later entries
SMILES	Vaccinia pol inh
O=C1CSc2cc(S(=O)(=O)N3CC=C(c4ccccc4)CC3)ccc2N1	105.5
CC1(C)S[C@@H]2[C@H](NC(=O)[C@H](NC(=O)N3CCNC3=O)c3ccccc3)C(=O)N2C1C(=O)O (stereo partly specified)	91.9
Nc1c(C(=O)c2ccc(Cl)cc2)sc2nsc(SCCN3CCCCC3)c12	113.8
COc1ccc2c(c1)oc(=O)c1ccccc12	91.6
CC(=O)NC(C)c1nc2ccccc2n1CC(=O)Nc1ccc(C(C)C)cc1 (stereo unspecified)	99.4
CCOC(=O)C1=CN(C(C)C)C=C(C(=O)OCC)C1c1ccccc1Br	91.4
c1cncc(-c2nc3c4c5c(sc4ncn3n2)CCCC5)c1	99.9
Oc1ccc(C(Nc2cccnc2)Sc2ccc(Cl)cc2)cc1 (stereo unspecified)	93.8
Cc1cc(C)n(C2=NCCN2S(=O)(=O)c2cc(C(F)(F)F)cc(C(F)(F)F)c2)n1	102.2
NC(=O)CSc1ccc(F)cc1	95.9
Cc1nc(-c2ccccc2)sc1C(=O)Nc1ccccc1	99.3
OCc1nc2ccccc2n1C/C=C/c1ccccc1	102.2
CC(=O)N1C(C(=O)O)Cc2c([nH]c3ccccc23)C1(C)C (stereo unspecified)	98.1
O=C1COc2cc(S(=O)(=O)CCC(=O)N3CCc4ccccc43)ccc2N1	103.0
Oc1ccccc1C1=Nc2ncnn2C(c2ccc(Cl)cc2)C1 (stereo unspecified)	100.0
COC(=O)[C@H]1[C@H]2C[C@H]3c4[nH]c5cc(OC)ccc5c4CCN3C[C@H]2C[C@@H](OC(=O)c2cc(OC)c(OC)c(OC)c2)[C@@H]1OC	87.4
Cc1cc(C)c(S(N)(=O)=O)cc1S(N)(=O)=O	99.7
O=C(NCCSc1c[nH]c2ccccc12)c1ccccc1	99.4
CCOC(=O)c1c(NC2=CC(=O)CCC2)sc2c1CCCCC2	100.1
O=C(c1ccc(Cl)c(Cl)c1)N1CCc2ccccc21	100.3
CN1CCN(Cc2c(Cl)cccc2Cl)CC1	100.5
Cc1ccc(C)n1-c1cccc(N)c1	99.9
Cc1cc(NS(=O)(=O)c2ccc(NCN3C(=O)c4ccccc4C3=O)cc2)no1	102.3
N#Cc1ccccc1N1C(=O)C=CC1=O	98.2
CC(C)CCOc1cccc(OCC(=O)NCC2CCCO2)c1 (stereo unspecified)	96.7
CC(C)(C)c1ccc(S(=O)(=O)NC(=O)c2cccc(Oc3cccc(C(F)(F)F)c3)n2)cc1	100.2
Nc1c(C(=O)c2ccccc2)sc2nsc(SCCN3CCOCC3)c12	87.9
CCC(=O)Nc1cc2nc3[nH]c(=O)n(C4CCCCCC4)c(=O)c3nc2cc1C	104.9
O=C(N1CCOc2ccccc21)n1ccnc1	97.6
COC(=O)CSC1=C(C#N)C(c2ccc(OCc3ccccc3)cc2)CC(=O)N1 (stereo unspecified)	99.1
COC(=O)C1=NOC2(CC(=O)N(c3ccc(Cl)cc3)C2=O)C1 (stereo unspecified)	98.1
O=C1Nc2ccccc2SC1C1C(=O)Nc2ccccc21 (stereo unspecified)	101.2
Cc1cc2cc(CNC(=O)Cc3cccc4ccccc34)ccc2[nH]1	99.7
O=C(CCBr)N1CCN(C(=O)CCBr)CC1	99.1
COc1cc(C(=O)C(C#N)c2nc3ccccc3s2)cc(OC)c1OC (stereo unspecified)	99.8
N#CCCN(Cc1ccccc1)S(=O)(=O)c1ccccc1	110.5
CC(C)CNC(=O)C1=CC(c2cccs2)=NS(=O)(=O)N1C	107.9
CC(=O)Nc1cccc(Oc2cnc3ccccc3n2)c1	112.8
Cc1ccc(-c2nc3ccccc3nc2NN)cc1	102.8
C/C=C(/C)C(=O)OC1CC(O)(C(C)C)C2C(OC(=O)c3ccc(O)cc3)CC(C)=CCC12C (stereo unspecified)	99.8
NC(C(=O)O)C(O)(c1ccccc1)C(F)(F)C(F)(F)F (stereo unspecified)	100.6
CCOC(=O)Cc1csc(-c2ccc(Oc3ccc(C(F)(F)F)cn3)cc2)n1	100.9
CCOC(=O)c1c(NC(C)=O)sc2c1CCCCC2	100.4
O=C(CSc1cc(Cl)ccc1Cl)NCCCn1ccnc1	85.7
Cc1cccc(Cn2c(=O)n(Cc3ccccc3)c(=O)c3c(C)c(C)sc32)c1	84.2
COc1ccccc1C1CCN(C(=O)CSCc2cccc3ccccc23)CC1	103.0
CCOC(=O)c1sc(C)c2c(=O)n(Cc3ccccc3)c(C)nc12	99.7
Cc1cc(=O)oc(C)c1C(=O)NCCN(C)Cc1ccccc1	102.6
c1ccc(SCc2cn3cccnc3n2)nc1	90.1
COc1ccc(S(=O)(=O)N(C(=O)Oc2ccccc2)c2ccc3oc(=O)sc3c2)cc1OC	95.4
CCOC(=O)C(C)Oc1ccc2c(-c3ccccc3)cc(=O)oc2c1 (stereo unspecified)	94.6
CCOC(=O)N1CCC(NC(=O)c2cc(Cl)sc2Cl)CC1	116.0
COc1nsnc1N1CCOCC1	100.2
CCn1c(CCCNC(=O)c2ccc(Cl)cc2)nc2ccccc21	100.3
COc1ccccc1Cn1c(=S)[nH]c2cc(C(=O)N3CCC4(CC3)OCCO4)ccc2c1=O	97.6
O=C(O)Cc1cc(=O)oc2cc(O)ccc12	99.5
Cc1c(C(=O)NCCC2=CCCCC2)sc2ncnc(N3CCCCC3C)c12 (stereo unspecified)	97.6
CS(=O)(=O)c1ccc(S(C)(=O)=O)s1	101.0
CCCCC1(CC)C(=O)NC(=O)NC1=Nc1ccc(OC)cc1 (stereo unspecified)	99.7
CCOCC(=O)N1CCN(c2cccc(C)c2C)CC1	93.4
CCOC(=O)C1CCCN(C(=O)c2cc(Nc3ccc(OC)cc3)nc3ccccc23)C1 (stereo unspecified)	99.6
N#C/C(=C\Nc1cnccn1)S(=O)(=O)c1ccc(C(F)(F)F)cn1	87.1

Some of the compounds tested (hit frequency here may not be typical).
